# MT1-MMP reporter: inhibitors of MT1-MMP promoter transcription, cell-based, luciferase reporter, luminescence (AID 618) | MT1-MMP promoter luciferase reporter cells, luminescence | calls from a first round at 10 µM; hits with a dose series show EC50 in µM | 87,000 tested, 0.62% active;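 active = over half of the reporter light lost at 10 µM or EC50 under 50 µM; inactive = the rest and hits that failed the dose series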;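 note: actives suppress MT1-MMP promoter-driven transcription so potencies describe inhibitors; HT1080 fibrosarcoma cells; overnight exposure; toxic or luciferase-blocking compounds were not removed from the actives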
# WNV NS2B-NS3 inh: inhibitors of West Nile virus NS2B-NS3 protease; P06935; WNV NS2B-NS3 protease, fluorogenic substrate Ex360/Em465; active compounds read low; z-score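 (tested at a level between 10 and 100 µM)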; 65,000 tested, 0.18% active; AID 577;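 active = z-score at -3 or under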;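 note: score is relative to mean and spread of the compound wells of a plate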
# Target sequence (P06935 1371-1501 limits assumed): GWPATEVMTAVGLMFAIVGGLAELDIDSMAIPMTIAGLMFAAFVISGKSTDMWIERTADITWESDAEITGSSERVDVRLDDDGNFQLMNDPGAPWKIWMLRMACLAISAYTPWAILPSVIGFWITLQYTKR
# Target sequence (P06935 1502-1679 limits assumed): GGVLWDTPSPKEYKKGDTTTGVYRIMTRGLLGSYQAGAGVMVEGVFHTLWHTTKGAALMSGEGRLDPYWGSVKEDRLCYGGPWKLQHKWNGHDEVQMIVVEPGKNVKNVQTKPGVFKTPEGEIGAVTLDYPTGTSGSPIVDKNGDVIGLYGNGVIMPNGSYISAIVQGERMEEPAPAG
# Hsc70 ATP site: small molecules displacing fluorescent ligand from Hsc70 – biochemical, fluorescence polarization, primary screen (AID 568); Hsc70 fluorescence polarization, probe displacement; higher % means a stronger effect; strong numbers were not always called active; one-dose displacement, % at 20 µM; IC50 in µM for titrated hits; 83,000 tested, under 10 active;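 active = displacement above 50% without optical interference and an IC50 on retest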;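 note: ATPase domain with a fluorescein-tagged ATP probe; 0% = vehicle and 100% = excess ADP; read after one hour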
# * marks the source's active call; other numbers are inactive results; i = inactive; / = not tested or not shown.
SMILES,MT1-MMP reporter,WNV NS2B-NS3 inh,Hsc70 ATP site
COc1ccc(C2C(C(C)=O)=C(O)C(=O)N2Cc2cccnc2)cc1 (stereo unspecified),i,/,4.2%
CCOC(=O)c1c(C)n(C)c2ccc(OC)c(NC(=O)CN3CCCCC3)c12,i,-3.4*,-6.2%
Cn1c(SCC(=O)Nc2nccs2)nnc1-c1ccncc1,i,-1.8,-3.1%
CCOC(=O)C1C(c2ccc3c(c2)OCO3)NC(=O)NC1(O)C(F)(F)F (stereo unspecified),i,0.47,1.1%
O=C(CN1CCOCC1)OCCCC1CCCCC1,i,-0.37,-5.0%
CC1Cc2nc(SCC(=O)NCc3ccco3)n(Cc3ccccc3)c(=O)c2S1 (stereo unspecified),i,-0.22,1.2%
O=S1(=O)NC(=NC2CCCCCC2)c2ccccc21,i,0.54,2.7%
CN(C)CCN(Cc1ccccc1)c1ccnc(N(C)C)c1C#N,i,0.39,-2.1%
COc1ccc(NC(=O)Nc2ccc3nccnc3c2)cc1,i,-0.11,-3.1%
COc1ccc(NC(=O)CCCC2=NS(=O)(=O)c3ccccc3N2)cc1,i,0.31,4.8%
O=C(OCN1C(=O)c2ccccc2C1=O)C1CCCCC1,i,-0.71,0.4%
O=C(c1ccco1)N(Cc1cccs1)C1CCS(=O)(=O)C1 (stereo unspecified),i,-0.1,2.0%
COc1cc(NC(=O)CSc2nnc3n2C(C)(C)Cc2ccccc2-3)cc(OC)c1,i,-0.88,2.4%
CCOc1cc(S(=O)(=O)NC2CCCC2)ccc1Cl,i,0.82,0.4%
Cc1ccnc(NC(=O)CCC(=O)N(CC(=O)NC2CCCCC2)c2ccc3c(c2)OCO3)c1,i,0.21,-3.2%
COc1ccccc1C1C=C(c2ccccc2)Nc2nnnn21 (stereo unspecified),i,-1,-2.2%
CCOC(=O)N1CCC(NC(=O)C2CCCN(S(C)(=O)=O)C2)CC1 (stereo unspecified),i,-0.51,2.2%
O=C1c2ccccc2C(=O)N1CCc1ccccn1,i,0.06,9.4%
CCOC(=O)c1cc(C#N)c(SCC(=O)c2cc(C#N)c(SC)nc2C)[nH]c1=O,i,-0.86,8.5%
COC(=O)c1c(NC(=O)CN2CCOCC2)sc2c1CCC(C)C2 (stereo unspecified),i,0.33,-0.5%
COc1ccc2[nH]cc(C3N4CC5(C)CN3CC(C)(C4)C5=O)c2c1 (stereo unspecified),i,-1.2,-2.6%
COc1cccc(-n2nnnc2SCC(=O)Nc2cccc(NC(C)=O)c2)c1,i,0.15,-4.6%
O=C(NCCOc1ccccc1)c1ncn[nH]1,i,-0.43,0.8%
CCN1CCN(c2cc(C)c3cc(NC(=O)c4ccc(Br)o4)ccc3n2)CC1,i,-0.1,-4.0%
CC(=O)O[C@@H]1[C@@H](OC(C)=O)[C@H](n2ccc3cc([N+](=O)[O-])ccc32)OC[C@@H]1OC(C)=O,i,/,3.6%
O=C1CNCc2[nH]c3ccccc3c2N1c1ccccc1,i,0.12,11%
O=C(CSc1nnc(-c2ccco2)n1-c1ccccc1)NCc1ccc2c(c1)OCO2,i,-0.18,-4.1%
CCOC(=O)C1CCCN(C(=O)CCc2ccccc2)C1 (stereo unspecified),i,-0.79,-1.4%
O=C(c1ccc2c(c1)c(=O)oc1ccccc12)N1CCCCC1,i,-0.61,5.3%
O=C(O)CSCc1c(F)cccc1Cl,i,-0.86,-9.0%

# By substructure: those above with an NH in an aromatic ring (4)
SMILES,MT1-MMP reporter,WNV NS2B-NS3 inh,Hsc70 ATP site
CCOC(=O)c1cc(C#N)c(SCC(=O)c2cc(C#N)c(SC)nc2C)[nH]c1=O,i,-0.86,8.5%
COc1ccc2[nH]cc(C3N4CC5(C)CN3CC(C)(C4)C5=O)c2c1 (stereo unspecified),i,-1.2,-2.6%
O=C(NCCOc1ccccc1)c1ncn[nH]1,i,-0.43,0.8%
O=C1CNCc2[nH]c3ccccc3c2N1c1ccccc1,i,0.12,11%

# The results go on.
SMILES,MT1-MMP reporter,WNV NS2B-NS3 inh,Hsc70 ATP site
CCc1cc2c(-n3nc(C)cc3C)ncnc2s1,i,/,-3.7%
COc1ccc(CCN2CCCn3c2nc2c3c(=O)n(Cc3ccccc3F)c(=O)n2C)cc1OC,i,0.07,-1.2%
COc1cc(NC(=O)c2cccc3c2C(=O)N(Cc2cccnc2)C3)cc(OC)c1OC,i,0.41,9.7%
CCn1c(N)c(C(=O)NCc2cccnc2)sc1=S,i,-2.1,1.5%
CCCC(=O)n1nc(-c2ccco2)nc1SCc1ccccc1,i,0.63,1.9%
CCOC(=O)c1ccc(NC(=O)c2ccc3c(c2)OCO3)cc1,i,-0.82,-8.1%
Cc1ccc(NC(=S)N/C(=N/S(=O)(=O)c2ccccc2)c2ccccc2)cc1,i,/,1.5%
COc1ccccc1C(=O)N1CCCC1(C#N)c1ccccc1 (stereo unspecified),i,0.39,-3.2%
Cc1cc(C)nc(SCC(=O)Nc2ccc(S(=O)(=O)Nc3nccs3)cc2)n1,i,-0.14,-0.1%
O=c1c2c3n(c(=O)nc2[nH]n1-c1ccccc1)CCCCC3,i,-0.24,1.9%
Nc1sc2c(c1C(=O)NC1CCS(=O)(=O)C1)CCC2 (stereo unspecified),i,1.1,-7.7%
COc1cccc(-c2nnc(NC(=O)c3ccc(S(=O)(=O)N(CC(C)C)CC(C)C)cc3)o2)c1,i,-0.28,-6.1%
COc1cccc(N(C(=O)c2ccco2)C(C(=O)NC2CCCC2)c2ccc(N(C)C)cc2)c1 (stereo unspecified),i,0.17,-1.1%
CC(CC(=O)NC1CCSC1=O)c1ccccc1 (stereo unspecified),i,-0.63,0.7%
Cc1cc(OCc2ccc(F)cc2)nc(-c2ccccc2O)n1,i,-0.45,0.0%
COc1ccc(NC(=O)CC(Cc2ccccc2)C(=O)O)cc1 (stereo unspecified),i,0.94,1.2%
CC(C)=CCCC(C)CN1CCC(O)CC1 (stereo unspecified),i,-0.44,5.6%
CNC(=O)N(C1=NCC(C)S1)c1ccc(F)cc1F (stereo unspecified),i,2.2,3.8%
Cc1ccc(C2CC(C(F)F)n3ncc(C(=O)Nc4cnn(Cc5ccccc5C)c4)c3N2)cc1 (stereo unspecified),i,-1.3,-5.0%
COc1ccc(N(CC(=O)Nc2ccc(S(=O)(=O)N3CCCC3)cc2)S(C)(=O)=O)cc1OC,i,-0.42,-2.7%
CC1=C(C(=O)OCc2ccc3c(c2)OCO3)C(c2ccccc2OCc2ccccc2)NC(=O)N1 (stereo unspecified),i,/,0.8%
CCCCCCn1c(SCCOC)nc2c1c(=O)[nH]c(=O)n2C,i,-0.59,-3.2%
O=C(CN(C(=O)C1COc2ccccc2O1)c1ccccc1)NCC1CCCO1 (stereo unspecified),i,-0.45,-5.5%
Cc1ccc(OCCNC(=O)Cn2cnc3c(=O)n(C)c(=O)n(C)c32)cc1C,i,/,-2.6%
COc1ccc(Nc2nc(-c3cccs3)cs2)cc1,i,/,-3.1%
O=C(COC(=O)c1cccc(S(=O)(=O)N2CCOCC2)c1)Nc1ccc2c(c1)OCO2,i,-0.53,3.6%
Cc1ccc(N2C(=O)CC(N(O)C3CC(=O)N(c4ccc(C)cc4)C3=O)C2=O)cc1 (stereo unspecified),i,0.51,-0.5%
COC(=O)CSC1=C(C#N)C(c2ccc(C)cc2)C2=C(CCCC2=O)N1 (stereo unspecified),i,-5*,-2.2%
O=C(CC1C(=O)NCCN1C(=O)Nc1ccccc1)Nc1cccc(C(F)(F)F)c1 (stereo unspecified),i,-1.1,0.0%
Cc1ccc(NC(=O)CC(O)(C(F)(F)F)C(F)(F)F)c(Br)c1,i,0.01,3.6%
O=C(Nc1cccc(O)c1)c1ccccc1,i,0.33,3.3%
COc1cc(C)c(C)cc1S(=O)(=O)N1CCCCC1c1cccnc1 (stereo unspecified),i,0.08,-2.5%
O=C(Cn1c(=O)c2c(ncn2C2CCCC2)n(Cc2ccccc2)c1=O)N1CCc2ccccc21,i,-0.08,-32%
COc1ccc2[nH]c(=O)c(CN(C(=O)c3cccnc3)c3ccc(C)cc3)cc2c1,i,/,-1.2%
CCOC(=O)c1c(C)[nH]c(C(=O)CSc2nnc(-c3cccs3)n2Cc2ccccc2)c1C,i,/,-7.2%
O=C(NNC1=C(C(=O)C(F)(F)F)CCC1)c1ccccc1Cl,i,/,-10%
COC(=O)c1ccc(NC(=O)C2CC(=O)N(c3ccc(C)cc3)C2)cc1 (stereo unspecified),i,/,-2.7%
COCC(=O)N(Cc1cc2cc(OC)ccc2[nH]c1=O)c1ccc(C)cc1,i,1.2,-4.9%
CCOC(=O)c1c(C)c(-c2ccccc2)n(CC(=O)N2CCN(C)CC2)c1C,i,-0.05,-3.5%
Cc1cc(S(=O)(=O)N(Cc2ccccn2)Cc2ccco2)ccc1-n1cnnn1,i,0.26,-2.0%
CN1C(=O)C(CC(=O)N2CCN(C(c3ccccc3)c3ccccc3)CC2)N(C)C1=O (stereo unspecified),i,-0.6,2.3%
Cc1cc(S(=O)(=O)NC2CCCC2)ccc1F,i,0.1,0.7%
O=S(=O)(c1ccc2oc(-c3ccncc3)nc2c1)c1ccc2oc(-c3ccncc3)nc2c1,i,-0.73,-13%
COc1ccccc1NS(=O)(=O)c1cc(C(=O)NCCN2CCOCC2)ccc1Cl,i,0.17,5.8%
O=C(c1cccc(S(=O)(=O)N2CCCC2)c1)N1CCN(c2ccccc2F)CC1,i,-0.16,3.8%
C/C(N)=C(/C#N)C(=O)CSc1nnnn1-c1ccc(C)cc1,i,2,-0.2%
CCOc1ccc(N(CC(=O)NCC2CCCO2)C(=O)CCC(=O)Nc2ccccn2)cc1 (stereo unspecified),i,/,-4.9%
c1ccc(Nc2nc(N3CCOCC3)c3ccccc3n2)cc1,i,/,-0.2%
O=C(OCc1nnc(-c2ccccc2)o1)c1ccc(S(=O)(=O)NCc2ccco2)cc1,i,-0.4,1.7%
COCCn1c(SCC(=O)Nc2sc(C)c(C)c2C#N)nnc1C(C)C,i,-0.36,-0.9%
# The listing continues.
SMILES,MT1-MMP reporter,WNV NS2B-NS3 inh,Hsc70 ATP site
C/C(=C\C(=O)c1cccnc1)Nc1ccc(C)c(C)c1,i,-0.78,2.2%
N#CCSc1nc2c(cc1C#N)CCCCCC2,i,-1.2,2.4%
CCOc1cc(-n2cnnn2)c(OCC)cc1NC(=O)c1cnccn1,i,-1,-10%
CCOc1ccc(-n2c(C)nc3cc(C(=O)NCc4ccco4)ccc32)cc1,i,-2.6,-2.2%
CCCCOCC(O)Cn1c(C)nc2ccccc21 (stereo unspecified),i,1.1,-2.3%
CC(=O)NC(c1ccc(F)cc1)c1cccnc1 (stereo unspecified),i,/,1.3%
COc1ccc(C2CC(c3ccc(C)cc3)Nc3ncnn32)cc1 (stereo unspecified),i,-0.79,0.1%
COc1ccccc1-n1cnc2cc(NCc3ccccn3)ccc21,i,/,5.3%
COc1ccc(NC(=O)C2CCCN(S(=O)(=O)c3ccc(C)cc3)C2)cc1OC (stereo unspecified),i,0.02,0.9%
CC(C)C(NC(=O)OCc1ccccc1)C(=O)O (stereo unspecified),i,/,-4.0%

# Single records, as listed above. Order of screens: MT1-MMP reporter, WNV NS2B-NS3 inh, Hsc70 ATP site
# O=C(CN1CCOCC1)OCCCC1CCCCC1 is entered as i, -0.37, -5.0%
# O=C(c1ccco1)N(Cc1cccs1)C1CCS(=O)(=O)C1 (stereo unspecified) is entered as i, -0.1, 2.0%
# COC(=O)c1ccc(NC(=O)C2CC(=O)N(c3ccc(C)cc3)C2)cc1 (stereo unspecified) is entered as i, /, -2.7%
# CCOC(=O)N1CCC(NC(=O)C2CCCN(S(C)(=O)=O)C2)CC1 (stereo unspecified) is entered as i, -0.51, 2.2%

# Ordered by formula weight (rising): some entries from above
SMILES,MT1-MMP reporter,WNV NS2B-NS3 inh,Hsc70 ATP site
C/C(=C\C(=O)c1cccnc1)Nc1ccc(C)c(C)c1,i,-0.78,2.2%
COc1ccc(C2CC(c3ccc(C)cc3)Nc3ncnn32)cc1 (stereo unspecified),i,-0.79,0.1%
CCOc1ccc(-n2c(C)nc3cc(C(=O)NCc4ccco4)ccc32)cc1,i,-2.6,-2.2%

# Additional records.
SMILES,MT1-MMP reporter,WNV NS2B-NS3 inh,Hsc70 ATP site
O=C(O)c1ccc(CS(=O)c2cccc(C(F)(F)F)c2)o1 (stereo unspecified),i,-0.7,7.4%
COc1cc(NC(=O)CN2C(=O)c3ccccc3C2=O)c(C(=O)O)cc1OC,i,/,6.1%
c1ccc(N=P(c2nc3ccccc3o2)(N2CCOCC2)N2CCOCC2)cc1,i,-0.51,2.1%
Cc1ccc(N(C)C(=O)N2CCN(c3ccccn3)CC2)cc1,i,0.69,4.1%
CCc1cccc(OCCCN2C(=O)NC(C)(C)C2=O)c1,i,/,-4.5%
Cc1nn(CC(=O)NCc2cccc3ccccc23)c(=O)c2ccccc12,i,/,6.0%
O=C(NC1=NCCS1)c1ccncc1,i,-1.1,5.8%
Cn1c(=O)c2c(nc(N3CCCCCC3)n2CC(=O)c2ccc(Br)cc2)n(C)c1=O,i,-0.47,-7.7%
O=C(c1cccs1)n1nc(-c2ccc(Cl)cc2)nc1NCc1ccco1,i,/,0.3%
O=C1NCCCC1C(=O)NCCNC(=O)C(F)(F)F (stereo unspecified),i,-0.45,-0.8%
COc1ccc2[nH]c(=O)c(CNc3ccccc3)cc2c1,i,/,1.7%
O=C(Nc1ccccc1)N(Cc1cccs1)C1CCCC1,i,0.01,-0.2%
CCCCCCCCS(=O)C1CCS(=O)(=O)C1 (stereo unspecified),i,/,1.1%

# Some of the compounds tested (hit frequency here may not be typical).
